Compound activity from PubChem.
AF4-AF9 inh: inhibitors of human MLL-AF4/AF9 interaction; AlphaScreen, biotin-AF4 peptide binding to FLAG-AF9; inhibition, % at 10 µM; 350,000 tested, 0.47% active;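 active = every replicate reaching a set inhibition limit, whatever the replicate mean, cut at about 25% in these data; inconclusive = mean inhibition reaches that limit but some replicates miss it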;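 also: 0% = plate neutral control median and 100% = total signal loss; the record names both 10 and 1 µM as test concentration; the first replicate is given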
RanGTP-Imp inh: disruptors of Ran-importin-beta complex formation – biochemical, FRET, CFP-Ran, YFP-importin-beta, homogeneous, primary screen; inhibition, % (no concentration beside the values); cell-free CFP-Ran/YFP-importin-beta FRET ratio; AID 2216; 300,000 tested, 1.1% active;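 active = most replicates above 15%; inconclusive = exactly half above 15%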;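 also: 0% = DMSO wells and 100% = Ran loaded with GDP instead of GTP; wells of about 40 µL received 100 nL stock; the first replicate is given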
UCH37 inh: blocks the human deubiquitinase UCH37; purified proteasome/UCH37, Ub-AMC cleavage fluorescence; 330,000 tested, 0.33% active; Q9Y5K5; inhibition, % (concentration not given with the values); AID 588478;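 active = mean of two replicates above 20%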;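 also: 0% = compound-free wells with enzyme and 100% = wells lacking proteasome; stock transfer was 100 nL into about 20 µL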
Target sequence (Q9Y5K5 whole entry, looked up): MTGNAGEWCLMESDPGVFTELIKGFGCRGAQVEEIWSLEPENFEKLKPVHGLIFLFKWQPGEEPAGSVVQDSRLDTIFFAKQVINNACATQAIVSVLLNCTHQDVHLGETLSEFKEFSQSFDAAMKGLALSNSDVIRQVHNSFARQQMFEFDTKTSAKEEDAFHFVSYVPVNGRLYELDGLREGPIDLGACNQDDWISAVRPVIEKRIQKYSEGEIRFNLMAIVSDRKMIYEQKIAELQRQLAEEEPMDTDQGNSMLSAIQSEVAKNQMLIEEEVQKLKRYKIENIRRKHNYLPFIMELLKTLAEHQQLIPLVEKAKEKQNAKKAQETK
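Signal – fluorescence, ex 355 nm, em 460 nm · System – Proteasome-bound UCH37 · Input – 0.15 nM proteasome as dispensed · Timing – 30 min preincubation with enzyme, 25 min cleavage at room temperature · Read-out basis – percent inhibition of cleavage signal versus uninhibited and no-proteasome wells · Medium – Tris-HCl pH 7.4 with ATP-MgCl2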
FGF22 binding: FGF22 (human) thermal shift binding | Q9HCT0 | recombinant FGF22 thermal shift, SYPRO orange fluorescence; percent of sucrose octasulfate shift, DMSO zero | calls only at 9.99 µM | 340,000 tested, 1.5% active;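 active = melting point raised past a set limit in the mean and every replicate; inconclusive = no clear call; three in four hits are not shown here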
Target sequence (Q9HCT0 whole entry, looked up): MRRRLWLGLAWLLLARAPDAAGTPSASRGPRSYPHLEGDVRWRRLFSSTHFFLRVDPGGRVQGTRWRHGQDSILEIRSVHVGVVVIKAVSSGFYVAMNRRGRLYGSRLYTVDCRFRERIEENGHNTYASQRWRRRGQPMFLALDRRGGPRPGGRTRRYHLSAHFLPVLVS
Vif TR-FRET: HIV-1 Vif–A3G interaction blockers – biochemical, TR-FRET, GST-Vif 1-94, biotin-A3G peptide, dose response retest, primary screen (AID 1117319) | TR-FRET GST-Vif / biotin-A3G peptide binding; higher % means a stronger effect; test concentration not given here; strong numbers were not always called active | inhibition, %, or IC50 in µM where a hit was titrated | 260,000 tested, 0.57% active;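 active = above the screen mean plus three standard deviations and confirmed in dose response; inconclusive = results disagree or hit not tested in dose response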;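 also: Vif residues 1-94 fused to GST binding biotinylated APOBEC3G peptide 110-148; 0% = full assay without inhibitor and 100% = GST in place of GST-Vif; retest series ran down from 100 µM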
Ecoli growth: inhibitors of Escherichia coli growth | OD600, 23 h; active compounds read low | 330,000 tested, 0.21% active | OD600 absorbance (concentration not given with the values);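 active = OD600 absorbance below the run mean of sample wells minus 3.6 SD, in any replicate, cut at about 0.56 in these data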;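 also: stock transfer was 300 nL into about 60 µL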
HNF4A DNA FP: change in binding of human HNF4 alpha to DNA. activity change, % at 10 µM. HNF4a-FITC DNA binding, fluorescence polarization, 1 h. 360,000 tested, 0.3% active; in the data active = activity change above about 30%, passing the limit was not always enough;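 also: controls were the assay level and a saturating level of protein; the project sought stronger binding though the title names inhibitors; some compounds called inactive have numbers as strong as hits; positive values seem to mean higher polarization but the record does not say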
Target sequence (P41235 whole entry, looked up): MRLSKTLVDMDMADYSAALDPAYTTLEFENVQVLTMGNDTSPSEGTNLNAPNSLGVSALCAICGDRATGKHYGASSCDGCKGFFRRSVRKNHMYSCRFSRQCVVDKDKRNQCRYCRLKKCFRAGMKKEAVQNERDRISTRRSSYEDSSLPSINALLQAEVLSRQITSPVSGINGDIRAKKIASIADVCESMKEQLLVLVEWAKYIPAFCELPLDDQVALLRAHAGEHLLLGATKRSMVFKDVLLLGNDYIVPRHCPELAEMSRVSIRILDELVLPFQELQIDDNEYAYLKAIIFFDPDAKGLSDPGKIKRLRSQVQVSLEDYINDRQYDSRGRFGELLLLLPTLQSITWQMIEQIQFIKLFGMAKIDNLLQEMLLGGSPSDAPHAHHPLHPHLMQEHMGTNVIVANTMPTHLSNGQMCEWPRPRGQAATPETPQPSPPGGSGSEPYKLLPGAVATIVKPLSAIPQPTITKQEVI
* marks the source's active call; other numbers are inactive results; i = inactive; ? = inconclusive; / = not tested or not shown; & = joins results of further samples. This is a subset (hit frequency here may not be typical).

SMILES	AF4-AF9 inh	RanGTP-Imp inh	UCH37 inh	FGF22 binding	Vif TR-FRET	Ecoli growth	HNF4A DNA FP
CN(C(=O)CC1C(=O)NCCN1Cc1ccc(F)cc1Cl)C1CCCCC1 (stereo not drawn)	-0.6	-1.1	-37.6	i	/	0.718	4.1
COc1ccc(C)cc1NC1=C(Cl)C(=O)N(C2CCCCC2)C1=O	/	-0.9	1.1	/	4.8%	0.672	0.2
COc1ccc(NC(=O)c2cccc(S(=O)(=O)NCc3ccco3)c2)c(OC)c1	3.0	2.5	2.0	i	2.5%	0.696	-0.8
COc1ccc(-c2csc3ncnc(N4CCN(Cc5ccccc5)CC4)c23)cc1	11.6	-1.6	-0.4	i	-0.1%	0.687	-5.1
Cc1cc(F)ccc1S(=O)(=O)N1CCCOC1CNC(=O)C(=O)NCCc1ccccc1 (stereo not drawn)	1.6	1.5	1.0	i	-1.4%	0.678	-1.9
Cc1cc(NC(=O)CCc2ccc(C)o2)no1	/	0.0	-1.5	/	1.2%	0.77	-1.9
O=C(NC1CCCCCC1)C(=S)NCCc1ccccc1	-2.7	24.7*	2.0	i	/	0.727	-0.9
CN(C(=O)CSc1nnc(C2CC2)n1C)C1CCCc2ccccc21 (stereo not drawn)	-2.3	/	0.6	i	-4.4%	0.714	-4.2
CCn1cc(/C=N\NC(=O)Cc2ccc([N+](=O)[O-])cc2)c(C)n1	/	1.5	/	/	-5.8%	/	0.1
Oc1ccccc1C(=S)N1CCN(c2cccc(Cl)c2)CC1	4.1	2.7	3.1	i	10.3%	0.59	1.4
O=C(COc1nsnc1N1CCOCC1)Nc1ccccc1Cl	0.3	2.2	1.8	i	3.2%	0.674	-2.9
O=C(COc1ccccc1F)NC12CC3CC(CC(C3)C1)C2	1.9	-1.4	1.4	i	-1.2%	0.639	0.2
Cc1ccc(C2CC(C(F)(F)F)n3ncc(C(N)=O)c3N2)cc1 (stereo not drawn)	/	-5.0	-1.3	/	-1.4%	0.738	-2.2
Cc1ccc(S(=O)(=O)C2(S(=O)(=O)c3ccc(C)cc3)CCCC2)cc1	/	-3.2	2.9	/	3.0%	0.654	2.4
CCOCCn1cnc2sc(C(=O)NCC(=O)OCC)c(C)c2c1=O	/	3.5	2.5	/	22.3%	0.81	-1.1
COc1cc(C2C(=O)N(C3CCCC3)CC(=O)N2Cc2ccco2)ccc1OC(C)C (stereo not drawn)	/	2.2	0.6	/	-0.5%	0.676	0.1
COc1ccc(C(=O)CNc2cccc(F)c2)cc1	0.5	3.1	5.1	i	/	0.691	1.1
O=C(NCc1ccco1)c1ccc2nc([C@@H]3O[C@H](CO)[C@H](O)[C@H](O)[C@H]3O)[nH]c2c1	-1.6	/	/	i	/	/	-3.1
CC(=O)N(C)c1ccc(NC(=S)Nc2ccccc2)cc1	/	-0.4	1.2	/	3.0%	0.705	-0.1
Cc1ccc(C2=N/C(=C\c3cccnc3)C(=O)O2)cc1	/	4.3	-0.9	/	/	0.691	0.3
COC(=O)/C(=C/c1cccc([N+](=O)[O-])c1)NC(=O)c1ccc(OC)cc1	0.9	4.7	3.8	i	-4.8%	0.708	0.6
COc1ccccc1CNS(=O)(=O)c1c(C)[nH]c(=O)[nH]c1=O	8.6	0.2	0.8	i	-0.9%	0.67	-1.7
CCSc1nc2c(c(=O)n1Cc1ccccc1)SC(C)C2 (stereo not drawn)	/	0.5	0.7	/	0.3%	0.646	-2.3
COC(=O)c1ccc(Oc2nc(NC(C)(C)C)nc(N3CCOCC3)n2)cc1	/	-0.1	4.0	/	8.1%	0.708	/

2 compounds drawn at random from the list so far, as already listed:
SMILES	AF4-AF9 inh	RanGTP-Imp inh	UCH37 inh	FGF22 binding	Vif TR-FRET	Ecoli growth	HNF4A DNA FP
COc1ccc(C(=O)CNc2cccc(F)c2)cc1	0.5	3.1	5.1	i	/	0.691	1.1
CCn1cc(/C=N\NC(=O)Cc2ccc([N+](=O)[O-])cc2)c(C)n1	/	1.5	/	/	-5.8%	/	0.1

Arranged by value in Ecoli growth (falling): five from the list above.
Structure	Ecoli growth
O=C(NC1CCCCCC1)C(=S)NCCc1ccccc1	0.727
Cc1ccc(C2=N/C(=C\c3cccnc3)C(=O)O2)cc1	0.691
O=C(COc1nsnc1N1CCOCC1)Nc1ccccc1Cl	0.674
COc1ccc(C)cc1NC1=C(Cl)C(=O)N(C2CCCCC2)C1=O	0.672
O=C(COc1ccccc1F)NC12CC3CC(CC(C3)C1)C2	0.639

(more compounds)
SMILES	AF4-AF9 inh	RanGTP-Imp inh	UCH37 inh	FGF22 binding	Vif TR-FRET	Ecoli growth	HNF4A DNA FP
COc1ccc(/C=C/C(=O)Nc2c(C)nn(C)c2C)cc1COc1ccc(Cl)cc1Br	/	-0.5	6.0	/	-0.7%	0.654	1.8
O=C(NCc1ccco1)c1cccc(Br)c1	-0.1	-2.7	0.3	i	/	0.694	3.5
COc1ccc(/C=C(/C#N)c2cccnc2)cc1OC	5.5	?	0.3	i	?	/	1.3
O=C(O)c1ccc(S(=O)(=O)NCc2ccc3c(c2)OCO3)cc1	-2.7	2.0	-4.4	i	-6.4%	0.664	-3.0
CCOC(=O)N1CCC(NC(=O)CS(=O)(=O)Cc2nc(-c3ccc(OC)cc3)oc2C)CC1	-4.1	1.5	5.0	i	/	0.69	0.4
Cc1nn2c(N3CCOCC3)c3c(nc2c1-c1ccccc1)CCCC3	/	-1.2	0.6	/	-0.3%	0.736	-4.4
CC(=O)c1sc(NS(=O)(=O)c2ccc(C)cc2)nc1-c1ccccc1	0.9	-1.8	9.1	i	/	0.642	1.2
CCOC(=O)N(C)[C@H]1C[C@H]2c3[nH]c4ccccc4c3CCN2C[C@H]1[C@H](C)O	4.8	/	/	i	/	/	-2.5
Cc1ccccc1/C=N/NC(=O)Cc1ccc(Cl)cc1	1.1	?	/	i	0.0%	/	3.1
c1ccc(CCN=C2CCCc3c2[nH]c2ccccc32)cc1	5.9	6.5	-6.4	i	17.9%	0.632	1.3
COc1ccc(S(=O)(=O)N2CCOCC2)cc1NC(=O)COC(=O)C1CC1C (stereo not drawn)	1.8	/	6.3	i	/	0.657	1.5
C=CCOc1ccc(CNC(C)(C)CO)cc1OC	/	-0.1	-1.4	/	27.6%	0.722	6.8
S=C(c1ccc(N2CCCC2)cc1)N1CCCCC1	/	/	5.4	/	11.3%	0.7	4.2
Cc1ccc(S(=O)(=O)Nc2ccccc2F)cc1C(=O)N1CCN(c2ccccc2O)CC1	2.5	/	-2.6	i	-4.8%	0.639	-1.7
COc1ccc(C(CCN2CCCC(C)C2)c2c(OC)cc(OC)c3c(C)cc(=O)oc23)cc1 (stereo not drawn)	/	-4.2	-2.3	/	/	0.657	-5.5
O=C(O)c1ccc2c(c1)SC1=NS(=O)(=O)CCN12	0.2	-1.4	-2.6	i	/	0.726	-0.3
O=C1CN(CC(=O)Nc2ccc(SC(F)F)cc2)CCN1	0.3	-1.0	2.3	i	-3.1%	0.68	2.0
COc1ccc(C2(C(=O)Nc3ccc(C)c(C)c3)CCOCC2)cc1	0.5	4.0	1.0	i	-6.2%	0.683	-3.3
Cc1ccc(C)c(NC(=O)CSc2nnc(-c3ccccc3)n2N)c1	/	4.2	-0.5	/	2.5%	0.709	-2.7
COc1ccc(S(=O)(=O)Nc2cccc(-c3ccc4nncn4n3)c2)cc1	?	?	3.7	i	-2.0%	0.683	3.0
CCOC(=O)c1ccc(N2C(=O)CC(NC3CCN(C(=O)c4ccc(F)cc4)CC3)C2=O)cc1 (stereo not drawn)	/	-2.2	5.0	/	-1.5%&-3.8%	0.779	-4.9
CC1CCC(C(=O)NC(C(=O)N2CCC(N3CCCCC3)CC2)C(C)C)CC1 (stereo not drawn)	/	0.3	1.0	/	0.3%	0.694	-0.5
O=C(CSc1nnc(CNC(=O)C23CC4CC(CC(C4)C2)C3)n1-c1ccccc1)Nc1ccccc1	-2.9	3.3	3.0	i	/	0.681	1.5
C=CCNC(=O)CSc1nnc(-c2ccccn2)n1Cc1ccccc1	-1.0	1.9	4.3	i	-5.2%	0.714	5.5
CCOc1ccc(-c2csc(NC(=O)c3ccco3)n2)cc1	1.6	-4.6	-2.5	i	-13.7%	0.669	1.6
N#CC(C#N)=C1C=CC=CN1/C(=C\c1ccco1)C(=O)c1ccc(Br)cc1	/	/	-8.8	/	15.7%	0.665	-0.5
C[C@H]1CCCCO[C@H](CN(C)CC2CCCCC2)[C@@H](C)CN([C@@H](C)CO)C(=O)c2cc(NS(=O)(=O)c3ccccc3)ccc2O1	4.7&4.6	/	/	i	7.3%	/	4.0
Cc1ccccc1CSc1nc2c(c(=O)[nH]1)CCCC2	/	0.9	-0.2	/	1.4%	0.637	/
O=C(NC(NC1CCS(=O)(=O)C1)C(=O)c1ccccc1)c1ccc(Cl)cc1 (stereo not drawn)	/	4.0	-0.7	/	0.3%	0.724	-1.6
Cc1c(/C=C(\CC(=O)O)c2nc3ccccc3s2)cc(C#N)n1C	12.2	4.4	-11.5	i	/	0.717	3.0
CC(=O)NC(c1cccc(F)c1)c1nc(-c2ccccc2)cs1 (stereo not drawn)	-1.7	/	/	i	/	/	-0.3
c1ccc(CSc2nnc(-c3cccs3)o2)cc1	/	-3.6	5.7	/	1.2%	0.604	-1.4
CC(C)n1c(NCc2cccs2)nc2ccccc21	/	-0.3	6.7	/	5.2%	0.637	0.5
Cc1cccc(NC(=S)Nc2ccc(Oc3ccccc3)cc2)n1	/	7.3	6.9	/	/	0.729	1.5
O=C(Cc1ccccc1)N/N=C\c1ccc(Br)o1	7.9	/	/	i	8.5%	/	-1.3
O=C(CSc1nnc(-c2ccco2)n1Cc1ccccc1)NC(=O)NCc1ccco1	1.3	-1.8	1.8	i	2.1%	0.624	0.0
CC(NC(=O)c1cccc(Cl)c1)C1CC2CCC1C2 (stereo not drawn)	-3.3	2.5	1.2	i	-4.7%	0.706	3.1
COc1ccc(NS(=O)(=O)c2cc(NS(=O)(=O)c3cc(C(=O)O)ccc3OC)ccc2C)cc1	-0.4	/	1.3	i	/	0.695	-4.9
Cc1cccc(C)c1NC(=O)CN(C)C(=O)CC1OC(=O)c2ccccc21 (stereo not drawn)	1.9	?	0.1	i	-0.4%	0.679	-1.5
CC(=O)c1sc(Nc2ccccn2)nc1C	/	?	10.4	/	7.4%	0.782	-0.6
C=CCc1c(C)nc(SCC(N)=O)[nH]c1=O	0.0	-0.5	5.1	i	7.5%	0.71	-2.5
COc1cc(NC(=O)c2cc(OC)c(OC)c(OC)c2)c(OC)cc1NC(=O)CN1CCCCC1	/	-3.3	3.9	/	4.7%	0.703	-0.1
CC(C)(Oc1ccc(Cl)cc1)C(=O)NCCN1C(=O)S/C(=C/c2cccnc2)C1=O	/	?	5.8	/	-2.2%	0.686	0.5
CC(=O)c1ccc(NC(=O)N2CCc3ccccc3C2)cc1	-1.5	-0.1	0.3	i	13.1%	0.709	-2.2
CN1C2C=C(N(CCc3c[nH]c4ccccc34)C(=O)c3ccc(Cl)cc3)CC1CC2 (stereo not drawn)	/	0.2	1.3	/	-1.1%	0.702	1.2
CC(=O)c1cccc(NC(=O)COC(=O)CCC(=O)c2ccc(F)cc2)c1	0.1	/	2.3	i	-5.0%	0.683	1.7
O=C(c1cc(COc2ccc(F)cc2Cl)on1)N1CCCC(c2ccccc2)C1 (stereo not drawn)	1.2	17.7*	3.7	i	2.7%	0.692	-0.6
Cc1ccc(NC(=O)COc2ccc(/C=C3/NC(=O)NC3=O)cc2)cc1	0.0	-1.5	-14.2	i	/	0.745	2.0
Cc1cccc(OCC(=O)NCCCNC(=O)c2ccc(C)nc2)c1	0.3	-0.2	2.0	i	/	0.614	-1.4
Cn1nccc1C(=O)N1CCCC(C(=O)c2ccc(Oc3ccccc3)cc2)C1 (stereo not drawn)	2.9	-0.2	3.3	i	/	0.712	-0.2
